Vaccinia mCherry: inhibitors of vaccinia virus infection (mCherry reporter signal); Vaccinia virus mCherry reporter infection, fluorescence; about a quarter of the inactives have no number; Potency, µM (highest dose often 36.5 µM), for the others: at the top dose activity change, negative = inhibition, most hits filed as inhibitors; 0.63% of 310,000 active; AID 720579; active = well fitted inhibition curve with a large enough effect; inconclusive = small, poorly fitted or top-dose-only effect; inactive = no such curve, though single readings can be large or run the other way; tested in A549 cells; further: nearly all actives have a fitted effect of over 35% in size; inactives centre near -10
VACV Venus inh: vaccinia inhibition (Venus reporter); AID 720580; Vaccinia virus Venus reporter expression, fluorescence; Potency, µM (series often up to 36.5 µM), without a hit: at the highest dose activity change, negative = inhibition, actives largely listed as inhibitors; 0.46% of 330,000 active; active means well fitted inhibition curve with a large enough effect; inconclusive means small, poorly fitted or top-dose-only effect; inactive means no such curve, though single readings can be large or run the other way; tested in A549 cells; further: nearly all actives have a fitted effect of over 30% in size; inactives centre near -10
Starred values were filed as active, the others as inactive; i = inactive; ? = inconclusive; nt = not tested or not shown; & = joins results of further samples; [ ] = another dose, or the depositor's remark. On the % scale 0 is the no-effect control and ±100 the full control effect; potency means the concentration at half of the fitted maximal effect.

| molecule | Vaccinia mCherry | VACV Venus inh |
| --- | --- | --- |
| C[C@@H](NC(=O)Cn1cnc2c(OCc3ccccc3)ncnc21)c1cccc2ccccc12 | ? | ? |
| Cc1cc(C)nc(SSc2nc(C)cc(C)n2)n1 | i | -6% |
| CN1CCN(C(=O)C23CC4CC(CC(C4)C2)C3)CC1 | nt | -15% |
| CO[C@H]1CN(C)C(=O)c2ccc(NC(=O)C3CCC3)cc2OC[C@H](C)N(CC2CCCCC2)C[C@@H]1C | ? | -19% |
| COc1cccc(OC)c1C(=O)OCC(=O)N(C)c1ccccc1 | -11% | -15% |
| COc1ccc(C2=NN(C(=O)c3cccnc3)C(c3ccccc3)C2)cc1 (stereo not given) | -4% | -16% |
| O=C(O)c1ccc2c(=O)n3c(nc2c1)/C(=C/c1ccc(OC(F)F)cc1OC(F)F)CC3 | i | -5% |
| O=C(Cc1c(F)cccc1Cl)Nc1cccnc1 | 2% | 2% |
| Cc1cnc(C(=O)OCc2ccc(C#N)cc2)cn1 | 13% | -5% |
| COc1cccc(C(=O)C2CCCN(C/C=C/c3ccccc3OC)C2)c1 (stereo not given) | -26% | -18% |
| O=C(Nc1ccc(F)cc1F)c1c(C(F)(F)F)ccnc1Oc1cccc(C(F)(F)F)c1 | -4%[7.34 µM] | -2%[7.34 µM] |
| Cc1ccc(Cn2cccc2C2=NC(C)(C)CO2)cc1 | 1% | 2% |
| C=Cn1cc[n+](CC(=O)c2ccc(OC)cc2)c1 | i | -10% |
| COc1cc(CCN)ccc1O | -2% | -10%&-12% |
| CC1CCN(S(=O)(=O)N2CCC(C(=O)O)CC2)CC1 | -10% | 0% |

Next section.
| molecule | Vaccinia mCherry | VACV Venus inh |
| --- | --- | --- |
| Cc1csc(SCC(=O)Nc2cc(S(=O)(=O)N3CCCC3)ccc2Cl)n1 | 0% | -12% |
| O=C(C=Cc1ccccc1)c1c[nH]c2ccccc2c1=O | ? | -29% |
| COc1ccc(NC(=S)N(CCC(C)C)C2CCN(C(C)C)CC2)cc1Cl | -21% | -22% |
| COc1ccc(-c2csc(Nc3ccc(S(=O)(=O)Nc4cc(OC)nc(OC)n4)cc3)n2)cc1 | -7% | -16% |
| Cc1cc(N2CCOCC2)nc2ccc(NC(=O)CCC(=O)N3CCN(c4ccc(F)cc4)CC3)cc12 | ? | -15% |
| Cc1nn(C)c(C(=O)N/N=C/c2cccc(Oc3ccccc3)c2)c1Br | i | -27% |
| C[C@@]12C(=O)N(Cc3ccccc3)CC(=O)N1[C@H]1c3ccccc3OC[C@@H]1[C@@H]2c1ccccc1 | ? | -25% |
| COc1cc2c(cc1OC)CN(c1ccc(C(F)(F)F)cn1)CC2 | ? | 2% |
| COc1ccccc1CNC(=O)c1ccc(NC(=O)N2CC(C)Sc3ccccc32)cc1 (stereo not given) | -6% | -9% |
| CSc1nc(C)c2c(n1)N(c1ccc(O)cc1)CC2 | ? | -27% |
| O=C(Nc1cc2c(cc1C(=O)c1ccccc1Br)OCCO2)c1cccc(Cl)c1 | 15% | 6% |
| CS(=O)(=O)Nc1cccc(-c2nccc(NCc3ccccc3)n2)c1 | i | 0% |
| CCOc1ccccc1CNC(=O)c1cccn1-c1nnc(N2CCCCC2)s1 | -18% | 1% |
| COc1cc(NC(=O)COC(=O)[C@@H]2CCCN2S(=O)(=O)c2ccc(Cl)cc2)cc(OC)c1OC | nt | -4% |
| O=C(COC(=O)Cc1c(F)cccc1Cl)NCCC1=CCCCC1 | i | -2% |

(list continues)
| molecule | Vaccinia mCherry | VACV Venus inh |
| --- | --- | --- |
| COc1ccc(C(=O)C2CCCN(CCO)C2)c(C)c1 (stereo not given) | ? | -8% |
| CCc1ccc(CN(Cc2cn[nH]c2-c2ccc(OC)cc2)C(=O)Nc2cc(Cl)ccc2OC)cc1 | -17% | -16% |
| O=C(COC(=O)c1nn(-c2ccccc2)c(=O)c2ccccc12)NC1CCS(=O)(=O)C1 (stereo not given) | -7% | 1% |
| CCN1CCN(C(c2cccs2)C(C)NC(=S)Nc2cc(C)ccc2C)CC1 (stereo not given) | i[7.34 µM] | 0%[7.34 µM] |
| COc1ccc(CCC(=O)Nc2ccc(C)c(S(=O)(=O)N(C)C)c2)cc1OC | -7% | -15% |
| NC(=O)C1=C[C@@H](c2coc3ccccc3c2=O)C[C@@H](OCc2ccc(CO)cc2)O1 | i | -11% |
| COc1ccc(OCC(=O)Nc2cc3oc4ccccc4c3cc2OC)cc1 | -12% | -1% |
| NS(=O)(=O)c1ccc(N2CCCCCC2)c([N+](=O)[O-])c1 | -16% | -11% |
| CSc1nsc(/C=C/Nc2ccc(O)cc2C)c1C#N | -23% | -5% |
| Cc1ccc(C(c2ccc(C)c(C)c2)C(O)C2OC(=O)C(O)C2O)cc1C (stereo not given) | -12% | -3% |
| O=C(c1ccco1)[C@@H]1[C@@H]2C(=O)N(c3ccccc3)C(=O)[C@@H]2C2c3ccccc3C=CN21 (stereo not given in full) | -8% | 12% |
| COC(=O)c1ccc(CSc2nnc(Nc3ccc(C)cc3)s2)o1 | -21% | -18% |
| O=C1C2ON(c3ccccc3)C(c3ccncc3)C2C(=O)N1c1ccc(N2CCOCC2)cc1 (stereo not given) | -21% | -6% |
| COc1ccc(CN2CCOc3c(cc(-c4ccc(OC)nn4)cc3OC)C2)c(O)c1 | -24% | -18% |
| Cc1nc2ccc(NC(=O)c3cccc(S(=O)(=O)N4CCOCC4)c3)cc2s1 | -11% | -21% |

Next part.
| molecule | Vaccinia mCherry | VACV Venus inh |
| --- | --- | --- |
| Cc1cccc(NC(=O)CNC(=O)COC(=O)CCS(=O)(=O)c2ccccc2)c1C | i | -12% |
| COC(=O)c1ccc(CSc2nnc(CNC(=O)c3ccccc3F)o2)o1 | i | -16% |
| CCOc1ccc(CN2C(=O)C(=O)c3cccc(C)c32)cc1OC | -17% | 8% |
| COCCN1C=C2C(=O)C(C)(OC(=O)C3CCCC3)C(=O)C(c3ccccc3)=C2C=C1CCCC(=O)OC (stereo not given) | -14% | -11% |
| COc1ccc(CC(=O)OCC(=O)N(CC(C)C)c2c(N)n(Cc3ccccc3)c(=O)[nH]c2=O)cc1 | -12% | -6% |
| COc1ccc(S(=O)(=O)Nc2ccc3c(c2)C(=O)N([C@H](C)CO)C[C@H](C)[C@@H](CN(C)S(=O)(=O)c2c(C)noc2C)O3)cc1 | i | -9% |
| CCOC(=O)[C@@H]1[C@H]2COc3cc(OC)ccc3[C@H]2N2C(=O)N(c3ccc(C)cc3)C(=O)[C@]12C | i | -7% |
| C[C@H](CO)N1C[C@H](C)[C@@H](CN(C)C(=O)NC2CCCCC2)Oc2ncc(Br)cc2C1=O | 2% | -10% |
| CC1=NN(C(N)=S)C(=O)C1N=Nc1c(Br)cc(Br)cc1Br (stereo not given) | -9% | -7% |
| Cc1ccc(S(=O)(=O)N2CC(C)C(=O)CC2C)cc1 (stereo not given) | i | -5% |
| CC(C)(C)NC(=O)C(c1cccc2ccccc12)n1c(=O)c(-c2ccccc2)nc2ccccc21 (stereo not given) | -18% | -13% |
| COc1ccc(NC(=O)N(C)C[C@H]2Oc3ccc(NC(=O)Cc4ccccc4)cc3C(=O)N([C@H](C)CO)C[C@@H]2C)cc1 | -24% | -13% |
| COc1ccc(N=C2SC(CC(=O)Nc3ccccc3OC)C(=O)N2Cc2ccco2)cc1 (stereo not given) | ? | -24% |
| CC(=O)c1sc(N2CCOCC2)nc1-c1ccccc1 | -4% | -1% |
| CC(C)CCn1cnc2c(cnn2-c2ccc(F)cc2)c1=O | nt | -9% |

Continued.
| molecule | Vaccinia mCherry | VACV Venus inh |
| --- | --- | --- |
| O=C(N/N=C/c1ccccc1)c1ccc(CN2C(=O)c3cccc4cccc2c34)cc1 | -16% | -23% |
| Cn1c(C(=O)NCCCN2CCOCC2)cc2c(=O)n(C)c3ccccc3c21 | -1% | -7% |
| CCOc1cccc(CN2CCCC(CNC(=O)c3cccc(OC)c3OC)C2)c1 (stereo not given) | -22% | 1% |
| CC(Oc1ccc(Cl)cc1)c1ccnc(N)n1 (stereo not given) | -20% | -9% |
| O=S1(=O)C[C@H](N2CCN(CCO)CC2)[C@@H](COCc2ccccc2)N1 | 9% | -5% |
| CN(C(=O)COC(=O)c1ccc(Cl)c(N)c1)c1ccccc1 | i | 5% |
| Cc1cc(C)n2ncc(C(=O)Nc3ccc4c(c3)OCO4)c2n1 | nt | 14% |
| COc1cc(C(=O)NCCS(=O)(=O)N2CCN(c3ccccc3)CC2)cc(OC)c1OC | -13% | -6% |
| COc1ccc(-c2cn3c(n2)sc2cc(C(=O)Nc4cc(Cl)ccc4C)ccc23)cc1 | -19% | -11% |
| O=C1CSC(=Nc2ccc(Cl)cc2)N1Cc1cccnc1 | i | -16% |
| Cc1ccc(C)c(OCCCn2c(-c3ccc(Cl)cc3)nc3ccccc3c2=O)c1 | 0% | 5% |
| CCN(CC)CC(=O)Nc1c(C#N)cnn1-c1ccccc1 | i[7.34 µM] | -9%[7.34 µM] |
| Cc1cc(C)cc(N2C(=O)NC(=O)/C(=C\C=C\c3ccco3)C2=O)c1 | -4% | 22% |
| COc1ccc(Cl)cc1S(=O)(=O)NCCCn1ccnc1 | -8% | -8% |
| COc1cc(C(=O)NC2CCN(C)CC2)ccc1Nc1ncc2c(n1)N(C1CCCCC1)CCC(=O)N2C | ? | ? |

(continued)
| molecule | Vaccinia mCherry | VACV Venus inh |
| --- | --- | --- |
| Fc1ccccc1Cc1nnc2n1N=C(c1ccc(Cl)cc1)CS2 | nt | 6% |
| COc1ccc(/C=C/C(=O)Nc2ccc(Cl)c(Cl)c2)cc1 | -16% | -18% |
| O=C(Nc1cccc(-c2cn3ccccc3n2)c1)c1ccccc1 | -11% | -12% |
| Cc1ccc([N+](=O)[O-])cc1NC(=O)CN(C1CCCCC1)S(=O)(=O)c1ccc(Cl)cc1 | nt | -17% |
| COC(=O)c1c(NC(=S)Nc2cc(OC)c(Cl)cc2OC)sc2c1CCCCC2 | i | -11% |
| Cc1ccc(NC(=O)CCC(=O)N/N=C/c2coc3ccc(F)cc3c2=O)cc1 | i | -2% |
| Nc1nc(SCc2ccc(Cl)cc2)[nH]c(=O)c1-c1ccccc1 | i | -16% |
| O=C1C(Nc2cccc(O)c2)=C(N2CCCCC2)C(=O)c2ccccc21 | -1% | -20% |
| O=C(NCCN1C(=O)S/C(=C\c2ccccc2)C1=O)c1cc(S(=O)(=O)N2CCOCC2)c(Cl)cc1Cl | -3% | -15% |
| CCOc1ccc2[nH]c(=O)c(CN(Cc3cccnc3)C(=O)Nc3ccccc3OC)cc2c1 | -28% | -13% |
| O=C(N/N=C/c1ccsc1)c1ccc2c(c1)OCO2 | -23% | -2% |
| Cc1ccc(NC(=O)C2CCN(S(=O)(=O)c3cccc4nonc34)CC2)nc1 | nt | -3% |
| CC(C)(C)CC(=O)Nc1cc(S(=O)(=O)N2CCOCC2)ccc1N1CCCC1 | -25% | -15% |
| O=C(c1cc(F)ccc1F)C1CCCN(Cc2cc(Cl)ccc2O)C1 (stereo not given) | -14% | -5% |
| COc1ccc2c(c1)c1c(c(=O)n(-c3ccccc3C)c(=O)n1CC(N)=O)n2C | -9% | 1% |

(further entries)
| molecule | Vaccinia mCherry | VACV Venus inh |
| --- | --- | --- |
| Fc1ccc(CNc2nc(-c3ccc(Cl)cc3)cc(C(F)(F)F)n2)cc1 | -12% | 5% |
| C=C(C)CNC(=S)NN=C1c2ccccc2-c2ccccc21 | -11% | -7% |
| CC(=O)c1cc(F)c(N2CCN(C(=O)c3ccco3)CC2)cc1C | nt | -9% |
| O=C(NCc1ccncc1)C(=O)NCC(c1ccco1)N1CCN(c2ccc(F)cc2)CC1 (stereo not given) | -11% | -15% |
| CC(=O)c1cccc(NC(=S)NNC(=O)c2ccco2)c1 | i | 3% |
| C=CCn1c(C(O)c2ccccc2)nc2ccccc21 (stereo not given) | -7% | -16% |
| CC(C)(C)C(=O)N1CCN(c2ccc([N+](=O)[O-])c(NCC3CCCO3)c2)CC1 (stereo not given) | 0% | -6% |
| O=C(C[C@H]1CC[C@H]2[C@@H](COC[C@@H](O)CN2C(=O)c2cnccn2)O1)NCc1ccc(Oc2ccccc2)cc1 | -12% | -15% |
| CCOC(=O)CC(=O)CSc1ncnc2c1cnn2-c1ccccc1 | nt | -9% |
| COc1ccc(S(=O)(=O)N2CCCCC2)cc1NC(=O)c1ccc(Cl)nc1 | i | -5% |
| CCOCc1cnc(C)nc1NCC(=O)c1c(C)[nH]c2ccc(OC)cc12 | -11% | 1% |
| O=C(CSc1n[nH]c(-c2ccccc2Cl)n1)NCCc1ccccc1 | -9% | -14% |
| CN1CCN(c2nc3ccccn3c(=O)c2/C=C(\C#N)S(=O)(=O)c2ccc(Cl)cc2)CC1 | -9% | 7% |
| Cc1ccc(C(=O)NCC(=O)NCC(=O)OCC(=O)c2ccc(Br)cc2)cc1 | -11% | -12% |
| COc1cc(/C=N/NC(=O)c2ccncc2)ccc1OC(=O)c1ccco1 | -9% | -7% |
| Cc1ccc(OCCCCNC2CCCC(C)C2C)c(C)c1 (stereo not given) | ? | 10µM* |

Bioassay records from PubChem.
